Assay outcomes (PubChem BioAssay)
CDC25B CDK2 inh: primary biochemical HTRF screen for blockers of M-phase inducer phosphatase 2 binding to CDK2/cyclin A; P30305+P24941; HTRF CDC25B-CDK2/CyclinA binding, anti-His/anti-Flag; active compounds read high; z-score (concentration not given with the values); 0.72% of 94,000 active; AID 1259370, 2018;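 also: score is relative to mean and SD of negative controls; strong numbers were not always called active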
HIV TAR-Tat: TAR RNA-Tat peptide displacers, HIV-1, primary screen, biochemical, FRET, FAM/TAMRA-labeled Tat; HIV-1 TAR RNA, Tat peptide displacement FRET; active compounds read high; z-score (test concentration not listed); 0.6% of 100,000 active;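 also: score is relative to mean and SD of negative controls; some compounds called inactive have numbers as strong as hits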
* marks the source's active call; other numbers are inactive results; / = no result given.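 The calls were made as follows: active = z-score from 3 up in half or more of its runs; inactive = the rest.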

SMILES	CDC25B CDK2 inh	HIV TAR-Tat
C[C@]12CCC3c4ccc(OC(=O)c5ccccc5)cc4CCC3C1CCC2=O (some centres not stated)	/	0.94
O=C1CCSc2ccc(S(=O)(=O)Nc3ccc4c(c3)OCCO4)cc2N1	/	0.25
Cc1nc(C(=O)NNC(=S)Nc2ccccc2C(F)(F)F)cs1	-1.2	/
CN1C(=O)C(C)(C)c2cc(S(=O)(=O)NCC3CCC(C(=O)NC4CCCCC4)CC3)ccc21 (configuration not stated)	/	2.1
O=C(Nc1ccc(S(=O)(=O)Nc2ncccn2)cc1)c1nn(-c2ccccc2)ccc1=O	-1.1	0.19
C=CCOC(=O)C1=C(C)NC2=C(C(=O)CC(C)(C)C2)C1c1ccccc1OC(C)C (configuration not stated)	-0.64	-1.6
CCCNC(=O)c1cnn2c3c(cnc12)CCCC3	/	0.29
CC1CCC(NC(=O)Cn2ncc3c4ccccc4n(C)c3c2=O)CC1 (configuration not stated)	-0.07	-0.59
CC1Cc2cc(S(=O)(=O)N(C)CC(=O)N3CCCc4ccccc43)ccc2N1C(=O)C1CCC1 (configuration not stated)	/	-0.45
Cc1ccc(N2CCCS2(=O)=O)cc1NS(=O)(=O)c1cccc(Cl)c1	/	-0.07
COCCCNC(=O)Cn1cc2c(n1)-c1c(oc(C(=O)N3CCCC3)c1C)CC2	/	1.8
COc1ccc(N2CCN(S(=O)(=O)c3cc4c(cc3Cl)NC(=O)CO4)CC2)cc1	/	1.8
COC(=O)c1ccc(-n2nnnc2SCc2ccc(Cl)cc2)cc1	0.64	-1.4
O=C(CN1CCC(CN2C(=O)c3cccc4cccc(c34)C2=O)CC1)c1ccc(F)cc1	1.4	/
O=C(Nc1ccc(F)cc1F)c1cn2c3c(ccc(Cl)c3c1=O)OCC2	/	0.91
O=S1(=O)C[C@H](NC2CCCC2)[C@@H](S(=O)(=O)c2ccccc2)C1	-2.3	-0.97
O=c1ccc(-c2ccc(S(=O)(=O)NCc3cccnc3)o2)n[nH]1	/	0.01
COc1cc(C2c3c(oc4ccc(C)cc4c3=O)C(=O)N2c2nccs2)ccc1O (configuration not stated)	1	1.2
O=C(NCCSc1ccc(Cl)cc1)Nc1ccccc1	/	1.2
CCC1CCCCN1C(=O)CSc1nc(=O)c2c(C)cc(C)nc2n1C1CC1 (configuration not stated)	/	0.05
CCCNC(=O)c1cc2sc(CC)cc2n1C	-1.5	-0.54
CCc1ccc(NS(=O)(=O)c2cc(-c3cnc(C4CC4)o3)ccc2C)cc1	/	0.87
Cc1ccsc1/C=N\NC(=O)c1cc(C(C)(C)C)[nH]n1	-1.7	/
CC1=C(C(=O)OC2CCCCC2)C(c2cccc(Cl)c2)C2=C(CCCC2=O)N1 (configuration not stated)	-0.75	0.99
O=C(c1ccccc1)c1cc2ccccc2o1	/	0.45
COc1ccc(S(=O)(=O)NCC2CCCO2)cc1-c1nnc2c3ccccc3c(C)nn12 (configuration not stated)	-1.1	/
Cc1cc(C)c(NC(=O)c2cc3c(=O)n4cccc(C)c4nc3n2C)c(C)c1	/	0.98
Cn1cc(-c2cc3n(n2)CCC(=O)N3CCCC(=O)N2CCOCC2)c2ccccc21	/	1.9
Cn1c(SCc2ccc(F)cc2)nc2ccc(C(=O)N3CCN(c4ncccn4)CC3)cc21	/	-0.07
CCOc1ccc(/C=C/c2nc(C#N)c(N3CCN(C)CC3)o2)cc1	-1.3	1.4
CCOc1cc(C2c3c(-c4cc(C)ccc4O)n[nH]c3C(=O)N2CCCOC)ccc1O (configuration not stated)	-0.61	0.15
CC1=CCC(COC2CCCCO2)CC1 (configuration not stated)	-0.36	/
CCc1cc2c3c([nH]c2cc1S(=O)(=O)Nc1ccc(F)c(F)c1)CCCC3=O	/	6.4
Cc1nnc(NCc2ccco2)[nH]c1=O	1.6	/
CCc1ccc(NS(=O)(=O)c2ccc3oc(=O)c4ncn(CC)c4c3c2)cc1	2.4	1.5
CCCOC(=O)CSc1nnc(-c2ccc(N(C)C)cc2)o1	-0.59	-0.43
CC1Cc2cc(S(=O)(=O)N3CCCC(C(=O)N4CCCC4)C3)ccc2N1C(=O)C1CC1 (configuration not stated)	/	0.42
O=C(Nc1nnc(S(=O)(=O)N2CCc3ccccc32)s1)c1ccco1	-1.1	0.38
O=C(Nc1ccc(N2CCCCC2)cc1)c1ccc(Cl)cc1	-1.2	/
O=C(NCCn1cnc2cc(C(=O)N3CCCC3)ccc21)Nc1cc(F)ccc1F	/	0.76
COC(=O)C1=CN(C2CC2)C=C(C(=O)OC)C1c1ccc(Cl)cc1	0.42	/
Cc1ccc(O)c(-c2n[nH]c3c2C(c2ccc(F)cc2)N(CCCOC(C)C)C3=O)c1 (configuration not stated)	-1.4	-0.73
Cc1oc2ncnc(N3CCOCC3)c2c1C(=O)NCCN1CCOCC1	/	0.92
Cc1ccccc1CSc1nc2c(c(=O)[nH]1)C(c1ccc(O)c(O)c1)CC(=O)N2 (configuration not stated)	2.9	25*
CNc1nc2c(c(=O)n(C)c(=O)n2C)n1CC(O)COc1ccccc1 (configuration not stated)	-1.9	-0.82
N=C1C(c2nc3ccccc3s2)=C(O)CN1c1cccc(F)c1	-0.61	0.05
Cc1nc2sccn2c(=O)c1S(=O)(=O)NCCCN1CCN(c2ccccc2)CC1	/	-0.4
OC(CN1CCCC1)c1ccccc1 (configuration not stated)	-2.6	/
Cc1ccc2c(=O)c(C(=O)O)c[nH]c2n1	1.5	20*
Cc1ccc(NS(=O)(=O)c2cc(-c3n[nH]c(=O)c4c3CCCC4)ccc2C)cc1C	2	0.79
CC(=O)c1cnc(N)nc1C	0.03	/
Cc1nnc2c3ccccc3nc(N3CCN(c4cccc(Cl)c4)CC3)n12	/	-1.7
O=C(Nc1cccc(Cl)c1)N(Cc1ccco1)c1ccccn1	-0.51	0.29
O=C(Nc1ccc(F)cc1)c1cc2c(s1)-c1ccc(Cl)cc1S(=O)(=O)C2	-1.6	2.1
Cn1ncc2c(NCCc3cccs3)nc(N3CCOCC3)nc21	/	1.8
O=C(c1cn[nH]c1C1CCNCC1)N1CCN(c2ccccc2)CC1	/	-1
CC1C(=O)Nc2ccc(S(=O)(=O)N3CCN(C4CCCCC4)CC3)cc2NC1=O (configuration not stated)	-1.2	0.67
O=C(Nc1cccc(Br)c1)N1CCC(CN2CCOCC2)CC1	/	0.6
COc1ccc(S(=O)(=O)c2cnc3cc(OC)c(OC)cc3c2N2CCOCC2)cc1	-1.3	-0.61
O=C(NNC(=O)Nc1ccc(OC(F)(F)F)cc1)Nc1ccc(OC(F)(F)F)cc1	-1.6	/

(list continues)
SMILES	CDC25B CDK2 inh	HIV TAR-Tat
CN1CCN(CCNC(=O)c2nn(C)c3c2COc2ccccc2-3)CC1	-0.35	0.3
Cc1nn(CC(=O)NCC2CCCO2)c(=O)c2c(-n3cccc3)n(-c3ccc(Cl)cc3)nc12 (configuration not stated)	/	1.7
Cc1cccc(-c2nnc(SCc3cc(=O)n4c(C)csc4n3)o2)c1	-0.89	3.1
O=c1c2nccnc2nc(SCc2ccc(F)cc2)n1CCc1c[nH]c2ccccc12	-0.1	-0.46
CCC(C)Nc1cc(C)nc2cc(-c3ccc(OC)c(OC)c3)nn12 (configuration not stated)	0.88	3.2
CC(C(=O)c1ccc(-c2ccccc2F)cc1)N1CCN(c2ccc(C#N)cc2)CC1 (configuration not stated)	-0.93	/
COc1ccc(Cn2c(SCc3cc(=O)n4cc(Cl)ccc4n3)nc3ncccc3c2=O)cc1	-2	-0.36
O=C(Cc1ccccc1)OCc1cc(=O)n2nc(C3CCCCC3)sc2n1	/	0.25
Cc1c(O)nc(SCC(=O)N2CCc3ccccc32)n(-c2ccccc2)c1=O	1.1	-0.4
CCCNc1ncnc2c1c(-c1ccccc1)cn2-c1cccc(C)c1	-4.2	/
Cc1cc(-c2ccc(=O)[nH]n2)cc(S(=O)(=O)Nc2ccccc2)c1C	/	0.95
CCCNC(=O)CCCN1C(=O)CCn2nc(-c3cccn3C)cc21	/	-1.9
CCCCCCNC(=O)Cc1nc2nc(C)cc(C)n2n1	/	-0.23
CC(C)CC(=O)OCc1cc(=O)n2nc(C3CCCCC3)sc2n1	/	-2.4
Cc1cc(C)c(S(=O)(=O)N2CC(C)OC(C)C2)c(C)c1 (configuration not stated)	-0.64	0.02
Cn1c(=O)n(C)c2cc(Nc3nc4ccccc4nc3NS(=O)(=O)c3ccc(Cl)cc3)ccc21	-1.9	-8.2
CCC(C)NS(=O)(=O)c1ccc2c(c1)NC(=O)C(C)S2 (configuration not stated)	/	1.7
Cn1c(=O)n(Cc2ccc(Cl)cc2)c2ccccc21	-0.49	0.62
CCCCn1c(Cn2ccnc2C)nc2cc(NC(=O)CC)ccc21	-1.6	1.6
CSc1ncc(C(=O)Nc2cc(C)cc(C)c2)c(C)n1	/	-1.7
O=C(CCCn1c(=S)[nH]c2ccsc2c1=O)N1CCCC1	-0.86	/
Cc1c(C)c(C)c(C=C2C(=O)OC(C)(C)OC2=O)c(C)c1C	-1.8	/
O=C1CCCC2=C1C(c1cccs1)N(S(=O)(=O)c1ccccc1)c1ccccc1N2 (configuration not stated)	/	0.45
COc1ccc(-c2cc(C(=O)OC(C)C)c3cc(Br)ccc3n2)cc1	15*	/
Cc1c(N/N=C(\C#N)c2nc3ccccc3[nH]2)c(=O)n(-c2ccccc2)n1C	-1.3	/
Cc1nn(C)cc1CNC(=O)c1nn2c(C(F)(F)F)cc(-c3cccs3)nc2c1Br	-0.55	0.71
c1ccc2oc(NC3=NCN(C4CCCCC4)CN3)nc2c1	-0.94	0.61
O=C(CN1N=NC2C(=O)N(c3ccc(F)c(Cl)c3)C(=O)C21)Nc1ccc(F)cc1 (configuration not stated)	/	1.8
COc1ccc(OC)c(C2=NOC(C(=O)N(C)c3ccccc3)C2)c1 (configuration not stated)	-0.26	0.21
CN(C)S(=O)(=O)c1ccc2c(c1)N(CC(=O)N1CCCC1)CCS2	/	-0.28
CCOC(=O)c1c(NC(=O)Cc2csc(C)n2)sc(C)c1C	-2.8	0.83
CN1CCSc2ccc(C(=O)NCc3ccc4c(c3)OCO4)cc21	-0.93	0.01
O=S1(=O)C[C@H](NCCC2=CCCCC2)[C@@H](S(=O)(=O)c2cccs2)C1	-0.65	-3.8
CC1=C(c2ccc(F)cc2)S(=O)(=O)N=C1Nc1ccc(C)cc1C	/	-1.1
CCOC(=O)C1=C(C)NC(=S)NC1c1ccc(SC)cc1 (configuration not stated)	0.12	/
CCn1c2c(c(=O)[nH]c1=O)C(c1ccccc1C)C1=C(N2)c2ccccc2C1=O (configuration not stated)	0.3	3.1
O=C1c2cccc3cccc(c23)C(=O)N1CCN1CCN(S(=O)(=O)c2ccc(F)cc2)CC1	-0.49	/
O=C1N(Cc2c(F)cccc2Cl)c2ccccc2S(=O)(=O)N1c1ccccc1	/	0.99
Nc1c(C(=O)c2ccc(Br)cc2)oc2ccccc12	0.23	0.06
O=C(O)c1ccc(N2C(=O)C=CC2=O)cc1	0.87	/
Cc1ccc(CNS(=O)(=O)c2ccc(CN3C(=O)c4cccnc4C3=O)s2)cc1	/	0.95
Brc1ccc(-c2cc3c(N4CCN(c5ccccc5)CC4)nccn3n2)cc1	-1.2	0.18
Cn1c(=O)c2c(-c3ccc(Br)cc3)n(-c3cccc4cccnc34)cc2n(C)c1=O	3.5	-1
CC1CCCCN1c1nnc(NC(=O)Nc2cc(F)ccc2F)s1 (configuration not stated)	-3.9	0.82
Cc1ccc(N2CC(O)=C(c3nc4ccccc4c(=O)[nH]3)C2=N)c(C)c1	-1.8	2.3
CCOC(=O)c1cn(Cc2ccc(Cl)cc2Cl)c2cc(C)nn2c1=O	-0.46	/
COCCNc1nc(N)c([N+](=O)[O-])c(Nc2ccc(Cl)cc2)n1	/	1
CCCCSC(=O)Nc1ccccc1	0.03	/
Cn1c(-c2nnc(SCC(=O)Nc3cccc(F)c3)o2)cc2ccccc21	-1.9	2
O=C(O)c1ccccc1C(=O)Nc1ncccc1OCc1ccc(Cl)c(Cl)c1	-1	/
CCOC(=O)c1cc(-c2ccc(S(=O)(=O)N(C)CCCc3ccco3)s2)on1	/	1.4
CN(C)CCNc1oc(-c2ccc(F)cc2)nc1C#N	0.13	1.2
CCCN1C(=O)C2(c3ccccc31)N1CC3(C)CN2CC(C)(C1)C3=O (configuration not stated)	-1.9	/
CC1=C(c2ccc(C)c(C)c2)S(=O)(=O)NC1=NCc1ccccc1Cl	-7.2	0.99
Cc1ccc(CNC(=O)Cc2c(C(=O)O)[nH]c3ccc(Cl)cc23)o1	0.15	/
Cc1nc2c(c(C)c1CCC(=O)NCCN1CCOCC1)c(=O)n(C)c(=O)n2C	0.14	1.1
COCCNC(=O)COCc1cc(-c2ccco2)on1	/	1.8
COc1ccc(Cc2nc(-c3ccc(-n4cccc4)cc3)no2)cc1	-1.3	-0.34
